Rango-impB inh = Rango-importin beta binding inhibition | Q14974 | AID 540263 | actives 0.031% (n = 340,000) | Potency, µM (highest dose often 92.2 µM), for the others: at the top dose inhibition of complex formation | Rango CFP/YFP FRET sensor + importin beta, 45 min; active = rising FRET ratio curve, often small or poorly fitted; inconclusive = mostly compound fluorescence or quenching in the first reads; inactive = flat curves in all reads;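 further: potency means the concentration at half of the fitted maximal effect; 0% = DMSO wells and 100% = buffer wells lacking importin beta; nearly all actives have a fitted effect of over 15% in size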
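Inhibition scored from the CFP 486 nm/YFP 530 nm FRET ratio 45 min after adding 0.125 microM importin beta to 50 nM Rango biosensor preincubated 5 min with compound (room temperature, PBS with DTT, Tween-20, BSA). No-importin wells as positive control.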
GLA inh pH 4.5 = inhibitors of human alpha-galactosidase A at pH 4.5; purified enzyme, 4-MU-alpha-Gal fluorescence, pH 4.5; activity change, negative = inhibition, % at 105 µM; 230,000 tested, under 10 active; inconclusive = small, poorly fitted or top-dose-only inhibition, or a rising curve; inactive = flat fitted curve, though single readings scatter; no compound was filed as active;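 further: 0% = full activity with enzyme and -100% = basal without enzyme; dose as in the result columns while the protocol names 77 µM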
Target sequence (P06280 whole entry, looked up): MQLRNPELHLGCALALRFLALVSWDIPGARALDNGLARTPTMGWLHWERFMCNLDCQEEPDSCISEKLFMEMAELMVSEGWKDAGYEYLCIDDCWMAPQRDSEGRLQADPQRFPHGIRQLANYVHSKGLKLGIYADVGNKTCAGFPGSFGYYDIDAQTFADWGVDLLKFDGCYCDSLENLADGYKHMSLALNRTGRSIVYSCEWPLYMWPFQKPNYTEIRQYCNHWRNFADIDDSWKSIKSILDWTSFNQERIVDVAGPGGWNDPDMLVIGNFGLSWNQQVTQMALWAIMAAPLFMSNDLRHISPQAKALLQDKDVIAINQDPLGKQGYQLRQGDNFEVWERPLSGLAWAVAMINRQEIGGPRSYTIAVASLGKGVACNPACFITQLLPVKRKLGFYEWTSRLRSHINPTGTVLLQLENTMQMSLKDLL
miR-21 FLuc = raises the signal of a miR-21 reporter; HeLa miR-21 FLuc reporter, luciferase, 48 h; Potency, µM (titrated, usually from 38.3 µM), inactives show top-dose reporter change, positive = more light; 340,000 tested, under 10 active; AID 2288; active = well fitted rising curve with a large enough effect; inconclusive = small, poorly fitted or top-dose-only effect; inactive = no such curve, though single readings can be large or run the other way;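 further: % of control where 0% means no effect; miR-21 action dims this reporter so a rising signal means less miR-21 action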
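Compounds were titrated across several concentrations (up to approximately 40 uM) and incubated 48 hours with HeLa miR-21-FLuc reporter cells (miR-21 target sequence downstream of FLuc, endogenous miR-21). Readout was firefly luciferase luminescence after lytic detection reagent.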
Rango dissoc inh = inhibition of RanGTP-driven Rango-importin beta dissociation | O95149+P62826 | Biochemical FRET Rango-importin beta, RanGTP-induced dissociation | Potency, µM (highest dose often 46.1 µM), for inactives: at the highest dose activity change, negative = inhibition | actives 0.071% (n = 340,000); active means falling FRET ratio curve, often poorly fitted, with flat reads before Ran was added; inconclusive means other falling curves, or compound fluorescence or quenching; inactive means flat or rising ratio curve;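 further: potency means the concentration at half of the fitted maximal effect; % of control where 0% means no effect; nearly all actives have a fitted effect of over 45% in size; -100% = wells without RanGTP and RCC1; the record marks most hits as doubtful in a second field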
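Rango FRET biosensor (snurportin-1 IBB flanked by N-terminal EYFP and C-terminal CFP10) at 0.1 uM, with 0.25 uM importin beta in PBS, 1mM DTT, 0.02% Tween-20, 0.1% BSA. 0.6 uM Ran, 2mM GTP and 0.2 uM RCC1 were then added for 45 min at room temperature. Inhibition read as loss of FRET rise.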
* marks the source's active call; other numbers are inactive results; ? = inconclusive; nt = no result given; & = joins results of further samples.

Structure	Rango-impB inh	GLA inh pH 4.5	miR-21 FLuc	Rango dissoc inh
CCCn1nc2cc(C(=O)NCCCCc3ccccc3)ccc2c1OCC	5.0%	8	-6%	-17%
CC1CCN(S(=O)(=O)c2ccc(C(=O)N3CCCCC3C(=O)O)cc2)CC1 (stereo not drawn)	-0.1%	nt	nt	-5%
O=C(Cc1csc(Nc2nc(=S)[nH]c3ccccc23)n1)NCCCN1CCN(c2ccccc2F)CC1	?	-28	5%	?
CCOc1ccc(OCC(=O)OCC(=O)Nc2ccc3[nH]c(=O)[nH]c3c2)cc1	0.3%	nt	nt	-1%
Cc1ccccc1NS(=O)(=O)c1ccc(C(=O)N(C)CC(=O)Nc2ccccc2Br)cc1	3.8%	nt	nt	11%
N#Cc1cccc(NC(=O)c2nc(-c3ccccc3)n(-c3ccccc3)n2)c1	3.5%	7	5%	2%
CCN(CC(=O)Nc1ccc2c(c1)OCCO2)C(=O)COc1ccc(C)cc1	-1.7%	nt	-2%	-12%
Cc1nc(SCC(=O)N2CCCCC2)c2c(C)c(C)sc2n1	1.6%	nt	7%	5%
CCN(Cc1ccccc1)S(=O)(=O)c1c[nH]c(C(=O)OC)c1	1.6%	nt	0%	-10%
CCN1/C(=C/c2ccc3cc(C)ccc3[n+]2CC)Sc2ccccc21	?	-8	?	?
CN(C)CCCNC(=O)/C=C/c1ccc(OCc2c(F)cccc2Cl)cc1	23%	0	16%	?
COc1cccc(/C=C/C(=O)Nc2ccccc2N2CCOCC2)c1	1.9%	-1	-29%	-14%
Cc1ccccc1COC(=O)CCC1=NS(=O)(=O)c2ccccc2N1	1.9%	nt	-1%	-4%
COCc1ccc(C(=O)NC2CCCc3c2cnn3-c2cc(C)cc(C)c2)s1 (stereo not drawn)	-1.4%	nt	7%	-2%
CCOC(=O)C1CCN(C(=O)Cn2cc(C(=O)OC)c3ccccc32)CC1	0.4%	1	0%	-18%
O=[N+]([O-])c1ccc(C(=S)N2CCN(Cc3ccccc3)CC2)cc1	-2.7%	-8	6%	-1%
FC(F)(F)c1cnc(-c2cnc(-c3cccnc3)nc2)c(Cl)c1	-0.2%	1	-41%	3%
Cc1oc2c(cc(NS(=O)(=O)c3ccc4c5c(cccc35)C(=O)N4)c3ccccc32)c1C(=O)OC(C)C	-7.0%	-4	-15%	-12%
CN(C(=O)CSc1nc2ccc([N+](=O)[O-])cc2s1)C1CCS(=O)(=O)C1 (stereo not drawn)	-1.9%	5	16%	-2%
CC(/C=N/n1c(COc2ccccc2)n[nH]c1=S)=C\c1ccco1	2.0%	3	-6%	-4%

Part of the list above, with values ahead of the structure.
Rango-impB inh	GLA inh pH 4.5	miR-21 FLuc	Rango dissoc inh	Structure
23%	0	16%	?	CN(C)CCCNC(=O)/C=C/c1ccc(OCc2c(F)cccc2Cl)cc1
1.9%	-1	-29%	-14%	COc1cccc(/C=C/C(=O)Nc2ccccc2N2CCOCC2)c1
1.9%	nt	-1%	-4%	Cc1ccccc1COC(=O)CCC1=NS(=O)(=O)c2ccccc2N1
-1.4%	nt	7%	-2%	COCc1ccc(C(=O)NC2CCCc3c2cnn3-c2cc(C)cc(C)c2)s1 (stereo not drawn)

Additional records.
Structure	Rango-impB inh	GLA inh pH 4.5	miR-21 FLuc	Rango dissoc inh
O=C(Cc1ncc(C(F)(F)F)cc1Cl)NC1CC1	0.4%	-1	1%	13%
COc1nc(NC2OC(CO)C(O)C(O)C2O)c(N)c(=O)[nH]1 (stereo not drawn)	?	nt	nt	?
Cc1ccc2oc(=O)cc(CN3CCN(C/C=C/c4ccccc4)CC3)c2c1	-4.4%	-11	-2%	-2%
COc1ccc2c(CC(=O)OCC(=O)c3ccc(F)cc3)coc2c1	0.1%	-2	-1%	-16%
Cc1c(NC(=O)/C(=C/c2cccs2)NC(=O)c2ccccc2)c(=O)n(-c2ccccc2)n1C	0.1%	-1	-3%	-15%
CCN(CC)C(=O)[C@H]1CC(CC(=O)NCCC2=CCCCC2)C(=O)N2CCc3c([nH]c4ccc(OC)cc34)[C@]12C (stereo partly drawn)	0.9%	nt	nt	8%
CCOC(=O)c1cnc(SCC(=O)c2ccc3c(c2)OCCO3)nc1N	-1.3%	-5	-22%	3%
C[C@@H]1CC[C@]2(C(=O)O)CC[C@]3(C)C(=CCC4[C@]56CC[C@@](O)(OC5)C(C)(C)C6CC[C@]43C)C2[C@H]1C (stereo partly drawn)	-0.4%	nt	nt	-6%
COc1ccccc1Oc1ccc(N2CC(C(=O)OCC(=O)c3ccc(F)cc3)CC2=O)cc1 (stereo not drawn)	-11%	nt	1%	-7%
CCC1=NN(C(=O)c2ccccc2Br)C(O)(c2ccc(Br)cc2)C1 (stereo not drawn)	1.5%	-13	-3%	-2%
CNC(=O)c1c(NC(=O)c2ccc(S(=O)(=O)N3CC(C)OC(C)C3)cc2)sc2c1CCN(C(C)C)C2 (stereo not drawn)	?	nt	-19%	?
O=C(CSc1ccccc1)Nc1cccc(NC(=O)c2ccco2)c1	4.1%	8	-1%	1%
CCN(CC)CCNC(=O)c1ccc(NC(=O)c2ccc(Cl)c(S(=O)(=O)N3CCCCCC3)c2)cc1	0.9%	-16	12%	7%
Cc1ccc(C(C)n2cc(C(=O)NCCN3CCN(C)CC3)nn2)cc1 (stereo not drawn)	-6.3%	0	-8%	16%
CCOc1ccc(C2C(=O)N(C3CCCCC3)CC(=O)N2CC2CCCO2)cc1OC (stereo not drawn)	-1.2%	-1	-8%	?
Cc1cc2oc3c(c(=O)c2cc1C)C(c1ccc(C(C)C)cc1)N(CCCN1CCOCC1)C3=O (stereo not drawn)	3.4%	7	-6%	8%
O=C(COC(=O)c1ccco1)NCCNC(=O)COC(=O)c1ccco1	0.3%	nt	1%	-1%
CS(=O)(=O)c1ccc(C(=O)OCC(=O)NC23CC4CC(CC(C4)C2)C3)cc1[N+](=O)[O-]	-1.8%	-4	1%	23%
COC(=O)c1cc(NC(=O)c2cc3ccccc3o2)cc(C(=O)OC)c1	0.2%	nt	1%	-1%
COc1ccc(N2C(=NC(=O)C3CCCCC3)SC3CS(=O)(=O)CC32)cc1Cl (stereo not drawn)	0.0%	nt	-3%	0%
Cc1nn(Cc2noc(C(=O)NCc3ccccn3)n2)c(C)c1Br	1.1%	nt	-5%	7%
COc1ccc(C(OC(=O)c2ccco2)C(=O)NC2CCCC2)cc1OC (stereo not drawn)	0.3%	nt	6%	-6%
CC(C)CC(NC(=O)c1ccc(C#CC(C)(C)O)s1)C(=O)O (stereo not drawn)	1.3%	-13	-4%	2%
CC(=O)C(Cc1ccccc1)NC(=O)COC(=O)c1ccc(-n2cnnn2)cc1 (stereo not drawn)	-3.3%	nt	nt	1%
COC(=O)c1c(-c2ccc(C)cc2)csc1N	0.4%	9	-12%	2%
CSc1ccccc1-c1nnc(-c2ccc(Cl)c(Cl)c2)o1	0.1%	5	-14%	-1%
CC12CCC(=O)N1C(C(=O)NCCc1ccc(S(N)(=O)=O)cc1)CS2 (stereo not drawn)	0.6%	nt	1%	3%
COc1ccc(NC(=S)NC(NC(C)=O)C(Cl)(Cl)Cl)c([N+](=O)[O-])c1 (stereo not drawn)	0.8%	-1	-8%	-1%
CC(Sc1ccccc1)C(=O)N1CCN(S(=O)(=O)c2ccc(Cl)cc2)CC1 (stereo not drawn)	-1.1%	nt	1%	-6%
Cc1onc(-c2ccccc2Cl)c1C(=O)Nc1cnn(Cc2ccccc2)c1	2.9%	7	8%	-9%
O=C(N/N=C/c1cccn1-c1ccc([N+](=O)[O-])cc1)c1cccnc1	3.6%	-6	20%	-11%
COc1ccc(CN2C(=NC(=O)c3ccccc3)SC3CS(=O)(=O)CC32)cc1OC (stereo not drawn)	2.9%	nt	-4%	8%
CC(C)CC(CO)N1CCN(C(=O)c2ccc(Cl)cc2)CCC1=O (stereo not drawn)	2.4%	nt	nt	-9%
CCC(OCC(O)CN1CCCCC1)c1ccccc1 (stereo not drawn)	3.6%	nt	-4%	-4%
O=C(COc1ccccc1)Nc1nnc(S(=O)(=O)N2CCCC2)s1	-1.6%	nt	-4%&-4%	11%
CCOCCCNC(=O)Cn1cnc2c(cnn2-c2ccc(C)c(C)c2)c1=O	-7.5%	nt	0%	-21%
O=C(NC1CC2CCCC(C1)N2C(=O)NCc1ccccc1)C1CC1 (stereo not drawn)	-1.6%	8	2%	-5%
COc1ccc(S(=O)(=O)N2CCCCC2)cc1NC(=O)CCC(=O)N1CCC(c2ccccc2)=N1	2.2%	nt	nt	-6%
O=C(COC(=O)c1c(Cl)cccc1Cl)Nc1ccccc1Br	-0.7%	6	-39%	-11%
Cc1ccc(S(=O)(=O)N2CCN(CCO)CC2)cc1-c1nnc2c3ccccc3c(C)nn12	-2.6%	nt	nt	1%
Cc1ccc(CNC(=O)CS(=O)(=O)c2cn(CC(=O)N3CCOCC3)c3ccccc23)cc1	-0.4%	nt	-2%	-19%
CCCc1nc2ccccc2c(=O)n1NC(=O)c1c(O)c2ccccc2n(C)c1=O	-3.2%	3	-4%	13%
C=CCn1c(SCC(=O)Nc2nc(C)cs2)nnc1C(NC(=O)c1ccccc1)C(C)C (stereo not drawn)	-1.8%	-1	-1%	-13%
CN1C(=O)NC(=O)C1c1ccccc1 (stereo not drawn)	6.1%	nt	nt	-1%
CCCn1c(=O)c2c(nc3n2CCS3)n(C)c1=O	-1.4%	5	7%	-1%
NCC(c1ccccc1)(c1ccccc1)c1ccccc1	-0.6%	-2	21%	15%
O=C(O)c1cccc(S(=O)(=O)Nc2ccccc2Cc2ccccc2)c1	2.9%	nt	11%	21%
COc1ccc(/C=N/OCC(=O)N2CC3(C)CC2CC(C)(C)C3)cc1OC (stereo not drawn)	-0.2%	-11	14%	11%
CC1CCN(S(=O)(=O)c2ccc3c(c2)c(=O)c(C(=O)NCc2ccccc2Cl)cn3C)CC1	nt	0	-4%	nt
COc1ccc(NC(=S)N2CCC(C(=O)c3ccc(C)cc3)CC2)c(OC)c1	-0.4%	-6	-1%	8%
CC(=O)c1cnc(Nc2cccc(Cl)c2Cl)s1	1.9%	3	-51%	-3%
NS(=O)(=O)c1ccc(NC(=O)CSc2ccccn2)cc1	-0.1%	-4	0%	10%
COc1cc(C2CC(=O)c3cnc(NC(=O)c4ccco4)nc3C2)cc(OC)c1OC (stereo not drawn)	-2.2%	nt	8%	-2%
NC(=O)CN1CCOCCN(CC(N)=O)CCOCC1	5.2%	3	-1%	0%
COc1cc(/C=N\NC(=O)c2c(C)nc3cc(C)ccn23)ccc1O	0.1%	0	-1%	-4%
Cc1[nH]c2ccc(-c3n[nH]c(=S)n3C)cc2c1C	7.1%	1	-34%	5%
Cc1cccc(NC(=O)CCC(=O)N/N=C/c2ccco2)c1C	-1.9%	1	-1%	1%
COc1cccc(C(=O)NNC(=O)c2ccc(NS(=O)(=O)c3cccs3)cc2)c1OC	2.9%	nt	nt	-14%
Cc1ccc(S(=O)(=O)N/N=C\c2ccc3c(c2)OCO3)c(C)c1	-0.8%	nt	-2%	-17%
Cc1nc(NS(=O)(=O)c2cccs2)c2c3c(sc2n1)CCC3	1.3%	4	-8%	-2%
O=C(COC(=O)c1ccccc1SCC(=O)N1CCCC1)NC1CCCCC1	2.4%	nt	nt	-15%
CCN1CCN(CC(O)COC(c2ccccc2)c2ccccc2)CC1 (stereo not drawn)	-2.9%	0	-2%	3%
CC(C)NC(=O)N(O)C1N(C(C)C)C(=O)N(Cc2ccc3c(c2)OCO3)C1(C)C (stereo not drawn)	-3.8%	-3	3%	-2%

Screening data: PubChem BioAssay, National Center for Advancing Translational Sciences (NCATS)

Not all compounds are listed. The share of hits here may be higher or lower than overall.
